B2AR ag – beta2AR agonists driving receptor internalization, primary screen, cell-based, FAP fluorogen, flow cytometry | Beta-2 adrenergic receptor (Homo sapiens), P07550 | Am2.2-beta2AR cells; reference of the scale not given here | response, % (no concentration beside the values) | hit rate 0.43% among 340,000 | AID 504454, 2011;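 active = response above a set limit, near 3 SD of response in nonfluorescent compounds, cut at about 42% in these data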;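 also: stock transfer was 100 nL into about 11 µL; a reference agonist was the positive control; negative values mostly stem from fluorescent compounds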
Target sequence (P07550 whole entry, looked up): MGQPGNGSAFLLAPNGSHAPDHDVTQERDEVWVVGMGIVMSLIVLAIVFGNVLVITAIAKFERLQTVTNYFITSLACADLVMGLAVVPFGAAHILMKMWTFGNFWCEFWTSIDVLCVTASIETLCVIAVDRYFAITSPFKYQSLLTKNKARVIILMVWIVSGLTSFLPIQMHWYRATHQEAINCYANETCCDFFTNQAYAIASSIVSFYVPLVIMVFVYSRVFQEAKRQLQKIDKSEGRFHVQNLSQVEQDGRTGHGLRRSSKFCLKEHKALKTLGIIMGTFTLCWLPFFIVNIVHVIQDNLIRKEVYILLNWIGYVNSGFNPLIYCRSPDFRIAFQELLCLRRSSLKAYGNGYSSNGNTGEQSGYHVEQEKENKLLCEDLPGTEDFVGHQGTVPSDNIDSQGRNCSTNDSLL
Beta cell apopt – inhibitors of cytokine-induced beta cell apoptosis, primary screen, luminescence. AID 435005, 2010. INS-1E cytokine-induced death, ATP luminescence, 48 h; percent of positive-control rescue, neutral wells zero. hit rate 0.8% among 300,000. protection from apoptosis, % (concentration not given with the values);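 active = all replicates at 75% or more, or half of them and the mean; inconclusive = half reach 75% but not the mean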;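 also: 0% = cytokine-treated negative control wells and 100% = positive control rescue; higher means more ATP so stronger rescue from cytokine killing; wells of about 40 µL received 100 nL stock; the first replicate is given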
Calb FLC – C. albicans growth inhibition with fluconazole, primary screen, CaCi-2 strain, Alamar Blue fluorescence. C. albicans CaCi-2 (fluconazole-resistant clinical isolate) + fluconazole, 48 h. hit rate 0.57% among 300,000. growth inhibition, % (no concentration beside the values);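 active = most replicates above 75%; inconclusive = exactly half above 75%; inactive = most below 75%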;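 also: all wells also contain fluconazole at 8 µg/ml as a sub-toxic cotreatment; 0% = median of DMSO wells and 100% = median of geldanamycin control wells; wells of about 8 µL received 7.5 nL stock; the first replicate is given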
LANA-H2B inh – blockers of LANA interaction with H2A/H2B – biochemical, FP readout, HTS, primary screen | Protein LANA1 (Human herpesvirus 8 type P (isolate GK18)), Q9QR71 | cell-free LANA-H2A/H2B peptide, fluorescence polarization | inhibition, % (test concentration not listed) | hit rate 0.6% among 320,000 | AID 2629, 2010; in the data active = inhibition mostly above about 10%, no sharp cut-off; inactive = mostly below about 6.7%;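 also: stock transfer was 7.5 nL into about 10 µL; 0% = median of vehicle wells and 100% = median of positive control wells; one replicate is shown; the record names a cut of 25% in any replicate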
Bfl-1 A1 inh – caspase 3/7 activation in MEF A1-2A-BIM cells, primary screen, A1 inhibitor project, cell-based, luminescence, HTS; Caspase-Glo 3/7 luminescence, 3 h; percent of clofoctol response, vehicle zero; caspase activation, % (no concentration beside the values); hit rate 0.066% among 330,000; AID 2462, 2010;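 active = over half of replicate activation scores above 10%, or exactly half above 10 with the replicate mean above 10; inconclusive = replicate mean below 10 yet half the replicates above 10; inactive = over half of replicates below 10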;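 also: wells of about 30 µL received 50 nL stock; many hits fall short of the cut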
UCH37 inh – inhibitors of human UCH37 deubiquitinase, primary screen, biochemical, Ub-AMC cleavage, fluorescence. inhibition, % (test concentration not listed). purified proteasome/UCH37. hit rate 0.33% among 330,000. AID 588478, 2011. Ubiquitin carboxyl-terminal hydrolase isozyme L5 (Homo sapiens), Q9Y5K5;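 active = mean of two replicates above 20%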;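 also: 0% = compound-free wells with enzyme and 100% = wells lacking proteasome; stock transfer was 100 nL into about 20 µL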
Target sequence (Q9Y5K5 whole entry, looked up): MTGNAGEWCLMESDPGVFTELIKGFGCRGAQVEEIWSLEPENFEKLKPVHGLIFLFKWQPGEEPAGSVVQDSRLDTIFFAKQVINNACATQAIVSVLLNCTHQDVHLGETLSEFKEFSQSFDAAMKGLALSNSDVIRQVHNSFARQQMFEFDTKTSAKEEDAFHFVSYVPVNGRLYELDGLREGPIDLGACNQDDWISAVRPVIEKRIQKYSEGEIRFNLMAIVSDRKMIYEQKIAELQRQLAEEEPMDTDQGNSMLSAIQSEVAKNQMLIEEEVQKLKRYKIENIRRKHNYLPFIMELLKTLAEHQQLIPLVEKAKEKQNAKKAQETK
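system = Proteasome-associated human UCH37 deubiquitinase | amount = 0.15 nM proteasome as dispensed | medium = pH 7.4 Tris-HCl (50 mM) with ovalbumin, ATP-MgCl2, DTT | incubation = 30 min preincubation with enzyme, 25 min cleavage at room temperature | detection = AMC fluorescence 355/460 nm | read-out basis = percent inhibition | controls = no-proteasome and no-compound wells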
T cruzi repl – inhibitors of intracellular T. cruzi growth, primary screen, luminescence, NIH3T3 host cells. inhibition, % (concentration not given with the values). T. cruzi beta-gal in NIH3T3, 90 h. hit rate 1.4% among 300,000. AID 1885, 2009;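 active = mean inhibition across valid replicates above about 55%, limit read from the data; inconclusive = mean below that limit but half or more replicates reach it; inactive = mean below it, under half of replicates reach it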;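 also: signal also drops with host cell toxicity which is not excluded here; 0% = plate median of DMSO wells and 100% = zero luminescence signal; higher percent means less beta-gal luminescence so fewer parasites; stock transfer was 50 nL into about 50 µL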
RanGTP-Imp inh – inhibitors of RanGTP-importin-beta interaction, primary screen, biochemical, FRET, CFP-Ran, YFP-importin-beta, homogeneous; cell-free CFP-Ran/YFP-importin-beta FRET ratio; inhibition, % (concentration not given with the values); hit rate 1.1% among 300,000; AID 2216, 2009;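 active = most replicates above 15%; inconclusive = exactly half above 15%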;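 also: 0% = DMSO wells and 100% = Ran loaded with GDP instead of GTP; wells of about 40 µL received 100 nL stock; the first replicate is given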
The depositor's hits bear a star; i = inactive; ? = inconclusive; / = no result given.

Structure	Calb FLC	UCH37 inh	Bfl-1 A1 inh	B2AR ag	Beta cell apopt	LANA-H2B inh	T cruzi repl	RanGTP-Imp inh
COc1ccc(NC(=O)c2cc(-c3ccccc3Cl)on2)cc1OC	8	1.0	0.3	-3	0	-3.6	6	0.1
C/C(=N\NC(=O)Cc1ccc(Cl)cc1)c1ccccc1O	-11	/	0.1	-4	68	-0.2	63*	-0.8
O=C(NCc1ccccc1)C1=C[C@@H](C2CC2)C[C@@H](OCc2ccc(CO)cc2)O1	4	1.9	0.1	2	-7	-3.4	11	1.4
COc1ccc(S(=O)(=O)Nc2ccc(O)c(Sc3nc4ccccc4s3)c2)cc1	0	3.0	0.0	4	-4	0.7	-12	5.0
Cc1ccc(N2C(=O)c3n[nH]c(C)c3C2c2ccccn2)cc1 (stereo not given)	-6	3.4	0.5	-4	2	2.4	-11	-4.7
CC(=O)NC1C(OCCOc2ccc(Cl)cc2Cl)OC(COC(C)=O)C(OC(C)=O)C1OC(C)=O (stereo not given)	0	1.7	0.7	-8	-7	-14	0	1.0
COc1ccc(OC)c(NC(=O)Cc2coc3ccc4ccccc4c23)c1	-4	4.3	-0.4	1	1	-5.8	-11	1.8
Cc1ccc(S(=O)(=O)NCCC(=O)NC2CC2)cc1	5	1.0	0.3	-1	2	1.9	-23	-2.1
COc1ccc(/C=C/C(=O)Nc2ccccc2C(=O)N2CCCC2)cc1	-8	3.4	-0.3	0	-11	7.4	-5	3.8
O=C(O)C1CCCN(S(=O)(=O)c2ccc(Br)s2)C1 (stereo not given)	-9	4.5	-0.2	-3	4	-2.4	-3	-3.1
CC(=O)COc1c(-c2ccco2)oc2ccccc2c1=O	6	-137	0.4	-2	0	3.1	-12	-3.6
COC(=O)[C@]1(C)N[C@H](c2ccc(-c3ccc(Cl)c(Cl)c3)cc2)[C@@H]2C(=O)N(C)C(=O)[C@@H]21	-7	0.7	-0.2	-4	-2	5.3	-12	2.0
COC(=O)c1ccc(COc2cccc(OC)c2)o1	?	2.2	-0.2	7	2	3.9	2	6.9
C=CC(C)Sc1nc2c(c(=O)n(C)c(=O)n2C)n1Cc1ccccc1Cl (stereo not given)	-1	0.8	-0.4	0	10	-1.3	5	-0.9
CCn1nc2cc(C(=O)NCC34CC5CC(CC(C5)C3)C4)ccc2c1OC	3	-18	0.5	16	-8	-1.0	-1	-2.2
C/C(=N\NC(=O)c1ccncc1)c1cc2ccccc2oc1=O	9	/	-1.0	0	2	-2.3	-16	5.2
O=C(NCCCN1CCCC1=O)c1ccc(Cl)c(NS(=O)(=O)c2ccc(F)cc2)c1	9	1.2	-0.3	8	4	-2.0	-10	1.3
S=c1[nH]nc(-c2cccc(Cl)c2)n1CCN1CCCCC1	19	-2.5	0.6	-2	0	5.2	6	-0.4
CCOC(=O)N/N=C(\C)c1ccccc1OC(F)F	-17	/	0.3	-2	-7	/	6	0.7
CC(=O)NC(NC(=S)Nc1ccccc1Br)C(Cl)(Cl)Cl (stereo not given)	-1	2.6	-0.5	-3	-4	0.2	-14	10
COc1ccc(CN2C(=O)C(CC(C)C)Nc3ncnc(N4CCOCC4)c32)cc1 (stereo not given)	9	-1.3	0.2	-3	3	-3.5	-11	-1.1
COc1ccc(CN2CCNC(=O)C2CC(=O)N(C)Cc2ccno2)c(F)c1 (stereo not given)	-3	-2.3	2.5	-3	-6	-1.6	0	5.5
COc1ccc(CN2C(=O)c3ccc(C(=O)O)cc3C2=O)cc1	10	-0.4	-1.4	0	-8	-1.2	2	2.0
CC(Nc1ccccc1)c1cc(Cl)ccc1O (stereo not given)	/	-0.6	0.1	4	-4	-4.0	/	/
Cc1cc(N(C)C)c(C#N)c(NCc2ccccc2)n1	-16	1.4	1.3	-8	/	0.9	29	3.8
Cc1ccccc1OCC(=O)OCC(=O)NCc1ccccc1	/	/	0.2	0	-2	5.7	/	/
CCC(=O)Nc1cc(C(F)(F)F)ccc1N1CCOCC1	-4	4.4	-1.7	-2	-1	0.7	-8	0.9
O=C(Nc1ccc(Br)cn1)C1CCN(S(=O)(=O)c2cccs2)CC1	7	-1.9	-0.9	-2	1	2.1	3	3.1
CC(=O)c1ccc(S(=O)(=O)N2CCC(C(=O)Nc3ncc(C)s3)CC2)cc1	/	3.9	1.7	-6	-4	3.7	/	/
CCOC(=O)N1CCN(CC(=O)Nc2cccc(Br)c2)CC1	-5	15	0.1	-4	-10	0.4	-9	?
CSc1cccc(N2CC(C(=O)Nc3ccccc3N3CCCC3)CC2=O)c1 (stereo not given)	-14	2.7	1.6	7	-3	-0.6	-5	-4.1
CCC(C)(C)n1nnnc1C(c1cccs1)N1CCc2ccccc21 (stereo not given)	0	3.7	-0.5	1	3	-1.4	7	-1.3
CC(C)[C@H](NC(=O)NCc1ccc(Cl)cc1)C(=O)O	4	0.8	0.3	6	-4	8.2	-8	-3.2
O=C(CNC(=O)c1cccs1)NCC(=O)OCc1ccc(Cl)cc1Cl	1	0.7	1.0	-1	0	-1.8	-23	-0.6
O=C(N/N=C/c1ccc([N+](=O)[O-])s1)c1ccccc1	17	/	0.0	7	-1	4.7	48	-0.2
CN1CCN(c2ccc([N+](=O)[O-])cc2C(=O)c2ccccc2)CC1	-5	8.5	-0.2	5	-11	2.9	0	-1.6
Cc1ccnc(NC(=O)c2cccc(S(=O)(=O)N3CCN(c4ccc(F)cc4)CC3)c2)c1	-4	0.5	0.0	0	-10	/	44	0.6
Cc1c(Br)cc(C(=O)N2CCCCCC2)c(C)c1C	8	0.2	-0.4	1	-3	-0.4	5	5.1
COc1cccc(NC(=O)Cc2cn(C)c3ccccc23)c1	0	0.6	1.0	-14	1	-0.7	-4	1.3
Nc1ccc(-c2nc3c(Cl)c(N)ccc3[nH]2)cc1	-5	i	-3.3	12	28	-2.5	6	-1.2
COc1ccc(-c2noc(CSc3nc(N)c(-c4ccccc4)c(=O)[nH]3)n2)cc1	?	4.4	0.1	-2	0	-1.5	-11	0.7
O=C(CN1CCN(c2ccccc2)CC1)Nc1ccncc1	-4	0.3	-0.2	2	0	-4.3	-4	-1.3
COc1cc(NC(=O)COC(=O)CCCC2=NS(=O)(=O)c3ccccc3N2)cc(OC)c1	-12	0.7	0.0	3	-5	7.1	0	4.2
CC1CCCCN1S(=O)(=O)c1ccc2[nH]c(=O)cc(C(=O)NCCCN3CCCCCC3)c2c1 (stereo not given)	-7	0.0	-1.3	5	-6	-7.1	-3	5.3
CN(C)c1ccc(-c2nnc(-c3cccnc3)o2)cc1	-1	-17	-5.1	-7	-5	-4.6	-2	0.5
Cn1c(SCC(=O)NC2CCCCC2)nnc1-c1cccc(N)c1	14	2.7	0.5	-2	-5	1.0	9	1.7
Cc1cc(F)ccc1S(=O)(=O)Nc1ccccc1C(=O)NCc1ccccn1	56	-40	-0.6	6	-4	11	6	-1.5
O=C(NC1CCCC1)C1CCN(S(=O)(=O)N2CCCCC2)CC1	0	0.7	-0.1	-7	8	10	-9	3.0

Laid out differently: results already given.
> Cc1ccc(N2C(=O)c3n[nH]c(C)c3C2c2ccccn2)cc1 (stereo not given)
  Calb FLC: -6
  UCH37 inh: 3.4
  Bfl-1 A1 inh: 0.5
  B2AR ag: -4
  Beta cell apopt: 2
  LANA-H2B inh: 2.4
  T cruzi repl: -11
  RanGTP-Imp inh: -4.7
> CC(=O)NC1C(OCCOc2ccc(Cl)cc2Cl)OC(COC(C)=O)C(OC(C)=O)C1OC(C)=O (stereo not given)
  Calb FLC: 0
  UCH37 inh: 1.7
  Bfl-1 A1 inh: 0.7
  B2AR ag: -8
  Beta cell apopt: -7
  LANA-H2B inh: -14
  T cruzi repl: 0
  RanGTP-Imp inh: 1.0
> COc1ccc(OC)c(NC(=O)Cc2coc3ccc4ccccc4c23)c1
  Calb FLC: -4
  UCH37 inh: 4.3
  Bfl-1 A1 inh: -0.4
  B2AR ag: 1
  Beta cell apopt: 1
  LANA-H2B inh: -5.8
  T cruzi repl: -11
  RanGTP-Imp inh: 1.8
> Cc1ccc(S(=O)(=O)NCCC(=O)NC2CC2)cc1
  Calb FLC: 5
  UCH37 inh: 1.0
  Bfl-1 A1 inh: 0.3
  B2AR ag: -1
  Beta cell apopt: 2
  LANA-H2B inh: 1.9
  T cruzi repl: -23
  RanGTP-Imp inh: -2.1

Next structures follow:
Structure	Calb FLC	UCH37 inh	Bfl-1 A1 inh	B2AR ag	Beta cell apopt	LANA-H2B inh	T cruzi repl	RanGTP-Imp inh
Cc1ccc(SCCN2CCC(NC(=O)OCc3ccccc3)CCC2=O)cc1 (stereo not given)	16	-295	-0.1	-5	-3	-2.6	6	2.3
CC1=C(C(=O)OCC(Br)(Br)Br)C(c2cccc([N+](=O)[O-])c2)NC(=O)N1CCCC(=O)O (stereo not given)	-6	3.1	-0.8	7	-4	-1.9	8	2.3
CCOc1ccc(C2/C(=C(\O)c3ccc4c(c3)OCCO4)C(=O)C(=O)N2CCCn2ccnc2)cc1OC (stereo not given)	/	9.0	0.2	4	0	-1.1	-3	3.6
Cc1[nH]c2ccc(C(=O)N3CCN(c4ccc(F)cc4)CC3)cc2c1C	/	1.3	0.1	4	-5	-1.3	-5	0.5
CCOC(=O)C1CCN(C(=O)c2[nH]c3ccc(OC)cc3c2C)CC1	5	-4.9	0.5	9	-1	-5.5	1	-3.3
CC(=O)c1ccc(N(CC(=O)NC2CCCC2)C(=O)CNC(=O)c2ccco2)cc1	-2	4.7	0.6	1	1	1.8	13	-2.4
CCN1CCc2c(C#N)c(N3CCOCC3)nc(NCc3ccccc3)c2C1	-3	/	/	-7	/	/	29	28*
O=[N+]([O-])c1cc(S(=O)(=O)N2CCCC2)ccc1N/N=C/c1ccncc1	-6	/	-0.6	5	3	2.0	11	-0.7
CCOc1ccc(CCNC(=O)COC(=O)COc2ccc(C#N)cc2)cc1OCC	/	1.4	-0.6	-3	-8	5.9	/	/
Cc1ccc(S(=O)(=O)N(c2cccc(C)c2)C2CCS(=O)(=O)C2)cc1 (stereo not given)	0	5.9	-0.2	-1	-3	-3.7	1	-0.6
CCC(=O)NCCCc1nc(-c2ccccc2)no1	-11	2.4	-0.1	-9	-5	-5.5	-2	2.6
CC(=O)N1c2ccccc2C2CCCC[C@H]21 (stereo not given in full)	/	-0.4	-1.3	-4	6	5.0	/	/
O=C(Nc1nnc(-c2ccco2)o1)c1cccc(N2C(=O)CCC2=O)c1	-13	3.0	1.7	17	-8	3.6	6	1.6
COc1cccc(CN2CC(C(=O)NCCOc3ccccc3F)CCC2=O)c1 (stereo not given)	20	4.1	-0.1	-2	1	7.7	-3	5.1
O=C1C2CC=C(Cl)CC2C(=O)N1CCC[n+]1cccc2ccccc21 (stereo not given)	11	-4.8	0.5	-3	1	/	-26	5.7
